# Source: PubChem
# N370S GC mod = inhibits or activates N370S mutant glucocerebrosidase | P04062 | N370S GC spleen homogenate, 4MU-glucoside fluorescence | Potency, µM (highest dose often 59.4 µM), inactives show top-dose activity change, negative = inhibition, actives largely listed as inhibitors | actives 0.092% (n = 330,000) | AID 2101;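 note: 0% = full enzyme activity and -100% = no enzyme basal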
# FEN1 inhibitor = blocks human flap endonuclease 1. P39748. Recombinant FEN1 flap cleavage, fluorescence, 15 min. Potency, µM (doses to about 114 µM), without a hit: at the top dose activity change, negative = inhibition, usual class: inhibitors. actives 0.35% (n = 390,000). AID 588795; note: nearly all actives have a fitted effect of over 65% in size
# Target sequence (P39748 whole entry, looked up): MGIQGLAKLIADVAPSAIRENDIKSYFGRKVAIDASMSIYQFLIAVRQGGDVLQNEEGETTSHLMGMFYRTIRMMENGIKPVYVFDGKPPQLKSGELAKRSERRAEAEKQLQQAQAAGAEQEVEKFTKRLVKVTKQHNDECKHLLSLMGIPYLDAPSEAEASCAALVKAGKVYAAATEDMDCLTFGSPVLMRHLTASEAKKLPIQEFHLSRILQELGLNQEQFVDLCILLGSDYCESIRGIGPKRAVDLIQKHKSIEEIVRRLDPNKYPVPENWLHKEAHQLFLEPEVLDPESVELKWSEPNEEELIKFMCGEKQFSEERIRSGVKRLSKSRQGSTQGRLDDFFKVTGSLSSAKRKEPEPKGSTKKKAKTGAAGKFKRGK
#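 Reaction started by adding substrate (50 nM final) to 10 nM enzyme after 15 min room-temperature compound preincubation. Reads at 0 and 15 min, with data normalized and fitted to a four-parameter Hill equation.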
# * hit, by the source's call; ? = inconclusive; · = no result given; & = joins results of further samples. Calls come from the whole dose curve; as a rule, active = well fitted curve in the direction sought with a large enough effect; inconclusive = small, poorly fitted or top-dose-only effect, or another doubt; inactive = no such curve, though single readings can be large; an effect the other way counts as inactive or inconclusive. Unless noted, % is set by controls: 0 for no effect and ±100 for the full control effect; potency is the fitted concentration of half-maximal effect. These rows are one share of the data, and most or all hits are left out here.
SMILES,N370S GC mod,FEN1 inhibitor
Nc1nc2ncc(CNc3ccc(C(=O)N[C@@H](CCC(=O)O)C(=O)O)cc3)nc2c(=O)[nH]1,?,-4%
CC(C)(C)c1ccc(C(=O)CSc2ncn[nH]2)cc1,5%,-9%
COc1ccc(N2CCN(C(=O)COCC(=O)O)CC2)cc1,0%,-4%
CC(=O)NC1=NN(C(C)=O)C(c2ccccn2)S1 (stereo not given),2%,15%
Cc1nn(-c2ccccc2)c2sc(C(=O)NC3CC3)cc12,-18%,-11%
O=C(NNc1ncnc2c1cnn2-c1ccc(F)cc1)c1ccco1,-3%,-5%
CCCCn1c(SCC(=O)NCc2ccc(C)cc2)nc2c(sc3ccccc32)c1=O,·,22%
Cc1ccc(-c2cc(C(=O)NCc3cnn(C)c3)c3cc(Br)ccc3n2)cc1,-1%,7%&4%
Cc1nc(NCC2CCCO2)nc2c1C(=O)CC(C)(C)C2 (stereo not given),6%,0%
C#CCSc1cc(C(F)(F)F)nc(-c2ccccn2)n1,18%,0%
COc1ccc(Oc2nc(C)nc3c2oc2ccccc23)cc1,8%,-21%
Cc1ccc(CCNC(=O)c2ccc3c(c2)N(Cc2cccc(F)c2)C(=O)c2ccccc2S3)cc1,·,-19%
CCN1CCN(CC(=O)c2c[nH]c3ccccc23)CC1,-2%,-6%
Cc1ccc(/C=N/N2CCN(c3ccccc3)CC2)cc1,5%,6%
CCCCc1nnc(NC(=O)C(C)Sc2nc(N)cc(=O)[nH]2)s1 (stereo not given),9%,-7%
CN(c1ccc([N+](=O)[O-])cc1C(N)=O)C1CCCCC1,1%,15%
CCC(NC(=O)Nc1cc(OC)c(OC)c(OC)c1)(C(F)(F)F)C(F)(F)F,-25%,-5%
CC(C)(C)NC(=O)C(c1ccc(F)cc1)N(Cc1ccco1)C(=O)Cn1nnc(-c2cccs2)n1 (stereo not given),6%,10%
O=C(Cn1ncc2c3ccccc3n(Cc3ccccc3F)c2c1=O)N1CCCCCC1,·,4%
O=C(CCC(=O)N1CCN(S(=O)(=O)c2cccc(F)c2)CC1)c1cccs1,0%,4%
Cc1cccc2cn[nH]c12,-18%,3%
OCCNC(=S)NCCc1ccccc1,4%,-8%
Cc1ccccc1-n1ncc2c(SCC(=O)NCc3cccs3)ncnc21,-4%,-3%
CN(C)CCNC(=O)c1c(CSc2ccccc2)noc1C(=O)NCc1ccccc1,2%,-7%
COc1ccc(-c2cc3nc(N)cc(=O)n3[nH]2)cc1,·,4%
CCOC(=O)C1CCCN(C(=O)c2cc(-c3ccc(C)cc3)nc3ccccc23)C1 (stereo not given),1%,-8%
Brc1ccc(Cn2c(-c3cncs3)nc3ccccc32)cc1,3%,-17%
Cc1cc(NCCNC2=CC(=O)CCC2)nc2ccccc12,-1%,3%
COc1cc(OC)cc(C(=O)Nc2c(C(=O)Nc3ccc(F)cc3)oc3ccccc23)c1,·,14%
Cc1cc(C)c(S(=O)(=O)N2CCN(C(=O)c3c(C)noc3C)CC2)c(C)c1,·,-14%
CCOc1ccc(/C=C/c2nc(C#N)c(NCc3ccc(OC)cc3)o2)cc1,·,20%
CCCC(=O)Nc1ccc(C(=O)COC(=O)c2c(C)noc2C)cc1,2%,5%
O=C(O)c1ccc(S(=O)(=O)Nc2cccc(CP(=O)(c3ccccc3)c3ccccc3)c2)cc1,19%,16%
Cc1ccc(N(CC(=O)N/N=C/c2cc(C)n(-c3ccccc3C)c2C)S(C)(=O)=O)cc1,-3%,-7%
COc1ccc(N2CCN(C(=O)CCS(=O)(=O)c3ccc(OC)cc3)CC2)cc1,1%,0%
COc1ccc(-c2[nH]ncc2CNC(C)CCn2cccn2)cc1F (stereo not given),2%,-1%
COc1ccc(/C=C2\SC(=N)N(c3ccc(F)cc3)C2=O)cc1,3%,2%
C=CCN=C1SC(CC)C(=O)N1S(=O)(=O)c1ccc(C)cc1 (stereo not given),9%,-4%
CC1CCN(C(=O)CCC(=O)Nc2nnc(C(F)(F)F)s2)CC1,2%,19%
COC(=O)Cn1ncc(N(C)Cc2ccccc2)c(Cl)c1=O,-4%,-5%
CCCc1nc2sc3c(c2c(=O)n1NC(=O)CCC(=O)OC)CCCC3,0%,1%
Cc1ccc(C)c(OCCC(=O)Nc2cccc(S(=O)(=O)N3CCCCC3)c2)c1,·,-21%
C/C(=N\NC(=O)Cn1nc(C)c([N+](=O)[O-])c1C)c1ccc(Cl)s1,22%,-17%
CCC1CCCCN1CCCNC(=O)CCCNC(=O)Cn1cnc2sc3c(c2c1=O)CCCC3 (stereo not given),7%,7%
COc1cc2ccccc2nn1,-20%,-7%
C=CCc1ccc(OCCCNC2CCCC2)c(OC)c1,·,0%
Cn1c(=O)n(CCOc2ccc([N+](=O)[O-])cc2)c2ccccc21,1%,12%
O=C(NC1CCCCC1)c1cc(-c2ccc(F)cc2)on1,-1%,4%
CCOC(=O)C(Cc1ccccc1)NS(=O)(=O)c1ccc(NC(C)=O)cc1 (stereo not given),-3%,6%
CC(C)(C#CCN1CCCCC1)OCCOC(c1ccccc1)c1ccccc1,19%,6%
CC(C)NC(=S)N1CCN(Cc2ccc3c(c2)OCO3)CC1,-4%,0%
O=C(N/N=C/c1ccc(N2CCOCC2)o1)c1cccc([N+](=O)[O-])c1,-15%,0%
O=C(/C=C/c1ccco1)NC1CCCC1,-2%,4%
CCCCOC(=O)Nc1ccc(N2CCCCC2)cc1,3%,-5%
Brc1ccc(Oc2nsnc2N2CCOCC2)cc1,3%,2%
CCC1CCCCN1CCCNC(=O)Cn1nc(-c2ccc(C)cc2)ccc1=O (stereo not given),21%,7%
Cc1ccc(C)c(OCC(=O)Nc2c[nH]c(=O)[nH]c2=O)c1,2%,7%
O=C(Cn1cnc2c(OCc3ccccc3)ncnc21)NCCCN1CCCC1=O,·,-18%
Cc1cc(Nc2ccccc2C(=O)O)n(-c2cccc(Cl)c2)n1,3%,8%
Cc1ccc(C(=O)N/C(=C\c2cccc([N+](=O)[O-])c2)C(=O)NC(Cc2ccccc2)C(=O)O)cc1 (stereo not given),3%,-2%

# Other results.
SMILES,N370S GC mod,FEN1 inhibitor
Cc1ccc(Cl)cc1NC(=O)N1CCC2(CC1)Oc1ccccc1C(=O)N2Cc1ccccc1F,·,9%
Cc1ccc(C)c(S(=O)(=O)N2CCN(C(=O)Cc3ccsc3)CC2)c1,-14%,-5%
O=[N+]([O-])c1ccc(/C=[N+](\[O-])CCO)o1,-27%,19%
COc1cccc(NC(=O)CN(C)C(=O)c2c(C)nn(-c3ccccc3)c2Cl)c1,·,-10%
CC(NC(=O)C1=Cc2ccccc2OC1)c1ccccc1 (stereo not given),·,15%
CC(=O)Nc1nc2cc(N)ccc2s1,·,-14%
CCOc1ccc2oc(-c3ccccc3)c(C(=O)O)c2c1,-12%,0%
Cc1ccc(-n2ncc(-c3nnc(SCC(=O)NC4CCCC4)o3)c2N)cc1C,2%,7%
O=C(CSC1=Nc2ccccc2C2=NC(CCC(=O)NC3CCCCC3)C(=O)N12)Nc1cccc(Cl)c1 (stereo not given),·,-3%
CCOC(=O)C(CC)n1cnc2c(oc3ccccc32)c1=O (stereo not given),-2%,-2%
CS(=O)(=O)N(CC(=O)Nc1ccc(Cl)c(Cl)c1)C1CCCCC1,29%,-4%
COc1cccc(NC(=O)c2cnn(-c3ccccc3)c2-n2cccc2)c1,·,-6%
CCc1nn2c(=O)cc(COC(=O)c3ccc4c(c3)OCO4)nc2s1,·,2%
CC(=O)c1ccc(NC(=O)CCNS(=O)(=O)c2cc(Br)cnc2N)cc1,-4%,-11%
O=C(NC(=S)Nc1ccccc1CO)C1CCCCC1,·,1%

# Compound profiles (already shown).
# Profile of O=[N+]([O-])c1ccc(/C=[N+](\[O-])CCO)o1 : N370S GC mod: -27%; FEN1 inhibitor: 19%
# Profile of CS(=O)(=O)N(CC(=O)Nc1ccc(Cl)c(Cl)c1)C1CCCCC1 : N370S GC mod: 29%; FEN1 inhibitor: -4%

# Of the compounds above, 6 have a COOH group:
SMILES,N370S GC mod,FEN1 inhibitor
Nc1nc2ncc(CNc3ccc(C(=O)N[C@@H](CCC(=O)O)C(=O)O)cc3)nc2c(=O)[nH]1,?,-4%
COc1ccc(N2CCN(C(=O)COCC(=O)O)CC2)cc1,0%,-4%
O=C(O)c1ccc(S(=O)(=O)Nc2cccc(CP(=O)(c3ccccc3)c3ccccc3)c2)cc1,19%,16%
Cc1cc(Nc2ccccc2C(=O)O)n(-c2cccc(Cl)c2)n1,3%,8%
Cc1ccc(C(=O)N/C(=C\c2cccc([N+](=O)[O-])c2)C(=O)NC(Cc2ccccc2)C(=O)O)cc1 (stereo not given),3%,-2%
CCOc1ccc2oc(-c3ccccc3)c(C(=O)O)c2c1,-12%,0%

# Remaining list, next part.
SMILES,N370S GC mod,FEN1 inhibitor
Cc1nonc1OC(C)CNCCNc1ccc([N+](=O)[O-])cc1 (stereo not given),-1%,-6%
CCOc1cc(NC(=S)NCC2CCCO2)c(OCC)cc1NC(=O)c1cccc(F)c1 (stereo not given),12%,-7%
COc1ccc(-c2nc3sc(CCNC(=O)C(=O)Nc4ccc(C)c(C)c4)c(C)n3n2)cc1,·,18%
CC(C)(C)c1ccc(OCC(=O)N/N=C/c2ccc(N3CCOCC3)cc2)cc1,-4%,-11%
CCOc1ccccc1NC(=O)C1CCN(S(=O)(=O)c2ccc3c(c2)CCCN3C(C)=O)CC1,·,-3%
CCOC(=O)c1ccc(S(=O)(=O)N2CCN(C(=O)c3ccccn3)CC2)cc1,·,-7%
Cc1ccc(S(=O)(=O)N2CCOCC2)cc1NC(=O)CN1CCN(C)CC1,·,-6%
CCOC(=O)N1CCN(C(=O)C(c2ccccc2)c2ccccc2)CC1,-7%,4%
C=CCN(CC(=O)NCC1CCCO1)C(=O)CCC(=O)Nc1cc(C)on1 (stereo not given),-5%,11%
COc1ccccc1N1CCN(c2ccc(NC(=O)c3ccc(C)cc3)cc2C(=O)O)CC1,·,1%
CC(=O)n1cc([C@H]2C=C(C(=O)N3CCOCC3)O[C@@H](OCc3ccc(CO)cc3)C2)c2ccccc21,?,2%
Cc1ccccc1OC1C(=O)N(Cc2ccc3c(c2)OCO3)C1c1sccc1C (stereo not given),20%,-10%
CCc1ccc2[nH]c(=O)c(CN(CCN(CC)CC)C(=O)Nc3ccccc3OC)cc2c1,-16%,1%
CC(=O)c1cccc(NC(=O)Nc2cc3sccc3n2C)c1,-9%,·
O=C(NCCCN1CCCCC1)c1ccc2c(c1)ncn2C1CCCC1,-9%,4%
CCN(CCCCCCN)c1ccc2c(=O)[nH][nH]c(=O)c2c1,-6%,3%
Cc1nn(CC(=O)Nc2ccc(Cl)c(S(=O)(=O)N(C)C)c2)c(C)c1[N+](=O)[O-],4%,-14%
Cc1nnc(SCc2nnc(-c3ccccc3Br)o2)n1-c1ccccc1,5%,-16%
Cc1cc(C)c(NC(=O)CSc2nc(C)cc(C)c2C#N)c(C)c1,·,5%
C/C(=N/NC(=O)C1CCCCC1)c1ccc([N+](=O)[O-])cc1,7%,-3%
CC(=O)c1ccc(OCc2cc(C(=O)N(C)Cc3ccccn3)no2)cc1,-20%,-5%
Cc1ccc2oc(C(=O)N(Cc3cccc(F)c3)C3CCS(=O)(=O)C3)c(C)c2c1 (stereo not given),·,-11%
CCN(CC(=O)NCc1cccs1)C(=O)CCC(=O)c1ccc(F)cc1,0%,6%
CC(=O)N(C)c1ccc(NC(=O)c2ccccc2C(=O)O)cc1,11%,-2%
COc1ccc(-c2nc(CSCC(=O)NCCc3ccc(OC)c(OC)c3)c(C)o2)cc1,·,-1%
NS(=O)(=O)c1ccc(CCNC(=O)/C=C/c2ccccc2[N+](=O)[O-])cc1,4%,-5%
O=C(c1ccc2c(c1)C(=O)N(Cc1ccco1)C2=O)N1CCOCC1,0%,15%
Cn1c(N)c(C(=O)COC(=O)c2ccc(C(F)(F)F)cc2)c(=O)n(C)c1=O,·,-8%
Cc1ccc(Cl)cc1N1CCN(CC(O)COCc2ccco2)CC1 (stereo not given),-7%,11%
Nc1ccc(N2CCN(c3ccc(F)cc3)CC2)cc1,-1%,14%
CCN1C(=O)C(CC(=O)Nc2ccc(F)cc2)N(Cc2ccco2)C1=S (stereo not given),-15%,-4%
COc1ccc(-c2nc(NC(=O)Cn3c(=O)oc4ccccc43)sc2C)cc1,2%,-25%
COc1ccc(CNc2nnnn2C)cc1,-7%,1%
C=CCNC(=O)c1sc(SC)cc1-c1ccc(Cl)cc1,-10%,-1%
O=C(O)CCC(=O)Nc1ccc(Cc2ccc(NC(=O)CCC(=O)O)cc2)cc1,25%,2%
CCC1(COC(NC(=O)c2cccnc2)(C(F)(F)F)C(F)(F)F)COC1,-16%,-2%
Cc1ccc(-c2noc(CCC(=O)Nc3ccccc3C)n2)cc1,9%,1%
CCCCN(C)C(=O)c1nc2ccccn2c1CN1CCN(C(=O)c2cccs2)CC1,1%,-1%
COc1cc(/C=C(\C#N)c2nc3ccccc3[nH]2)ccc1OC(=O)c1ccco1,-3%,9%
O=C(NCC1CCCO1)C(=O)N/N=C/c1cccc(Cl)c1 (stereo not given),-4%,5%
Cc1ccc(-c2csc(NC(=O)c3cccs3)n2)cc1,9%,-21%
